From PubChem
GLP1R ag: GLP-1 receptor (human) agonism; P43220; Potency, µM (titrated, usually from 45.6 µM), for inactives: at the highest dose activation, usual class: activators; hit rate 0.007% among 380,000; HEK293 GLP-1R CRE-luciferase, luminescence, 4-6 h; cells express a hypersensitive GLP-1R form; AID 624172; further: % of control where 0% means no effect
Target sequence (P43220 whole entry, looked up): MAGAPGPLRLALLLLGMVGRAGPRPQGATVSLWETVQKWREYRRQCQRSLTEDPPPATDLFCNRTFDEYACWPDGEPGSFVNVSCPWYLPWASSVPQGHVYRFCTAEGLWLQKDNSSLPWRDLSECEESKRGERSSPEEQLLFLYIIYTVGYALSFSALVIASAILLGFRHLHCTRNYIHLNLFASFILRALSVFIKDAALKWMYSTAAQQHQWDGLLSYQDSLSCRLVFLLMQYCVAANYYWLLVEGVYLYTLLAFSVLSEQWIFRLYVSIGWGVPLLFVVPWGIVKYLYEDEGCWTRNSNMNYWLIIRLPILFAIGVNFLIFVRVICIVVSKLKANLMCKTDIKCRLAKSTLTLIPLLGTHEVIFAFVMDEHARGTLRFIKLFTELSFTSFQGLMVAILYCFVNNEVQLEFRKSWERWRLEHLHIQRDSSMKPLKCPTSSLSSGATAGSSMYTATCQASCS
GLP-1R inv ag: GLP-1 receptor (human) inverse agonism | P43220 | HEK293 GLP-1R CRE-luciferase, luminescence, 24 h; GLP-1R form is constitutively active | Potency, µM (doses to about 38.3 µM), for inactives: at the highest dose activity change, negative = inhibition, actives largely listed as inhibitors | hit rate 1.6% among 410,000 | AID 624417; further: on the % scale 0 is the no-effect control and ±100 the full control effect; nearly all actives have a fitted effect of over 55% in size
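Cells are plated, allowed 12 hours at 37 deg C, then treated with compounds for 24 hr before luciferase detection reagent is added and luminescence is read after 12 min at room temperature. The HEK293 line carries constitutively active GLP-1R with a cAMP-responsive reporter.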
aSyn rescue: rescues yeast growth from alpha-synuclein toxicity. AID 652106. hit rate 0.14% among 370,000. Yeast expressing alpha-synuclein, growth rescue, BacTiter-Glo, 24 h. Potency, µM (series often up to 46.1 µM), for inactives: top-dose growth rescue (activation), most hits filed as activators; further: % of control where 0% means no effect; nearly all actives have a fitted effect of over 65% in size
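Rescue of yeast growth: cells expressing toxic alpha-synuclein, induced in galactose at OD600 0.02, incubated with compound 24 h at 30 C. ATP luminescence quantified growth; inhibitors of toxicity appear as activators.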
KB-V1 cytotox: kills drug-selected multidrug resistant KB-V1 cells; KB-V1 MDR cells viability, CellTiter-Glo, 72 h; hit rate 3.4% among 400,000; Potency, µM (highest dose often 46.1 µM), inactives show at the top dose activity change, negative = cytotoxicity, actives largely listed as cytotoxic; further: on the % scale 0 is the no-effect control and ±100 the full control effect; nearly all actives have a fitted effect of over 60% in size
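KB-V1, DMEM (no phenol red) + 10% FBS; cpd pin-transferred, titration series; 72 h, 37 degrees C; CellTiter-Glo, luminescence. Data normalized, curve-fit.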
PTHR1 ag: activates the human parathyroid hormone receptor PTHR1; Q03431; HEK293 GP2 PTHR1 cells, GloSensor cAMP luminescence, 1 h; Potency, µM (top dose mostly 115 µM), for the others: top-dose activation, most hits filed as activators; hit rate 0.075% among 410,000; AID 743266; further: nearly all actives have a fitted effect of over 55% in size; some results filed as inactive show a strong effect at the top dose; inactives centre near -15; many of its hits are not listed in these tables
Target sequence (Q03431 whole entry, looked up): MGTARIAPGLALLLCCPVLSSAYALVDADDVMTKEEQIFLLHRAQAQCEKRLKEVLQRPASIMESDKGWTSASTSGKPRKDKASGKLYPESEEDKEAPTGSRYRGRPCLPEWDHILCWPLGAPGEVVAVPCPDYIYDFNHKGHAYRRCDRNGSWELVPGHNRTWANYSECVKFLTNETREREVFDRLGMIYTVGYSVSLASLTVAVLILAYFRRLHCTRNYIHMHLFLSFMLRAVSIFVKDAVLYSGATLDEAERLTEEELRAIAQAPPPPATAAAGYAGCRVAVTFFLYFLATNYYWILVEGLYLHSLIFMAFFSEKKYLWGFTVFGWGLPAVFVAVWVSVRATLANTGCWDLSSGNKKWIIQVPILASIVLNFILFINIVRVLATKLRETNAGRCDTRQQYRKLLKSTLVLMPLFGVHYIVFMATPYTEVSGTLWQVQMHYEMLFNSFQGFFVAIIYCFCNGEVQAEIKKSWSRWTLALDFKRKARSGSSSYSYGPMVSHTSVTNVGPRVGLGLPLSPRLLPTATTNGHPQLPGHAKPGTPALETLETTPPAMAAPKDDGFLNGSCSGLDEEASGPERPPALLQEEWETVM
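HEK-293-derived GP2 cells expressing PTHR1 and a GloSensor cAMP reporter, 3,000/well, plated overnight, given luciferin plus IBMX (each 0.5 mM as added) for 1 h at 37 °C, then compound for 1 h at 37 °C. Luminescence was read after 15 min at room temperature.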
GLP1R cytotox: cytotoxicity counter-screen for GLP-1 receptor inverse agonists | HEK293 cAMP-luciferase reporter cells, luminescence, 24 h | Potency, µM (top dose mostly 38.3 µM), for inactives: at the highest dose activity change, negative = inhibition, hits mostly inhibitors | hit rate 0.13% among 410,000 | AID 624418;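 further: loss of luciferase light is scored as toxicity; on the % scale 0 is the no-effect control and ±100 the full control effect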
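Quantitative HTS format, 1536 wells, 200 cells/uL seeded. Compounds: 23 nL, 24 h, 37 °C. Detection: luciferase reagent, luminescence at 12 min RT; decreased signal taken as cytotoxic.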
TDP43 rescue: inhibitors of TDP-43 toxicity in yeast | TDP-43 expressing yeast growth rescue, BacTiter-Glo, 24 h | Potency, µM (series often up to 46.1 µM), for inactives: at the highest dose growth rescue (activation), actives largely listed as activators | hit rate 1.8% among 410,000; further: % of control where 0% means no effect; nearly all actives have a fitted effect of over 50% in size
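Luminescence from BacTiter-Glo reports growth of TDP-43-expressing yeast after 24 hr at 30 deg C with compound. Cells were raffinose-pregrown to mid-log, then seeded in galactose medium at OD600=0.02.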
* = called active by the depositor; i = inactive; ? = inconclusive; nt = not tested or not shown; & = joins results of further samples; [ ] = dose if it differs, or a comment. The call rests on the fitted dose curve; in most records, active means well fitted curve in the direction sought with a large enough effect; inconclusive means small, poorly fitted or top-dose-only effect, or another doubt; inactive means no such curve, though single readings can be large; an effect the other way counts as inactive or inconclusive. Potency means the concentration at half of the fitted maximal effect. These rows are one share of the data. The share of hits here may be higher or lower than overall.

canonical_smiles | PTHR1 ag | GLP1R cytotox | GLP-1R inv ag | GLP1R ag | TDP43 rescue | KB-V1 cytotox | aSyn rescue
CC(=O)O[C@H]1C(=O)[C@@]2(C)C([C@H](OC(=O)c3ccccc3)[C@]3(O)C[C@H](OC(=O)[C@H](O)[C@@H](NC(=O)c4ccccc4)c4ccccc4)C(C)=C1C3(C)C)[C@]1(OC(C)=O)CO[C@@H]1C[C@H]2O (stereo not given in full) | -17% | -31% | -73% | -1% | 8% | ? | 10%
COc1c2occc2cc2ccc(=O)oc12 | 8% | -2% | 74%[activator] | 12%&24% | ? | 4% | 5%
C[C@](N)(Cc1ccc(O)cc1)C(=O)O | nt | nt | nt | 0% | nt | nt | -1%
C/C(=C(/CCO)SSC[C@@H]1CCCO1)N(C=O)Cc1cnc(C)nc1N | nt | nt | nt | -2% | nt | nt | nt
CCOc1ccccc1OCCN[C@H](C)Cc1ccc(OC)c(S(N)(=O)=O)c1 | nt | nt | nt | 3% | nt | nt | nt
CCN1CCCC1CNC(=O)c1cc(S(=O)(=O)CC)c(N)cc1OC (stereo not given) | nt | nt | nt | 4% | nt | nt | -5%
CCCN1C[C@H](CSC)C[C@@H]2c3cccc4[nH]cc(c34)C[C@H]21 | -21% | 3% | -6% | -5%&0% | -3% | -23% | 5%&4%
C[C@@H]1C[C@H]2[C@@H]3CCC4=CC(=O)C=C[C@]4(C)[C@@]3(F)[C@@H](O)C[C@]2(C)[C@@]1(O)C(=O)CO | -8% | -3%&-1% | -8%&-31% | -2%&0% | ? | -2%&-15% | 2%&0%
COC1C=CO[C@@]2(C)Oc3c(C)c(O)c4c(O)c(c5c(nc6cc(C)ccn65)c4c3C2=O)NC(=O)/C(C)=C\C=CC(C)C(O)[C@@H](C)C(O)C(C)[C@@H](OC(C)=O)C1C (stereo not given in full) | nt | nt | nt | 4% | nt | nt | nt
CC1CCc2cc(F)cc3c(=O)c(C(=O)O)cn1c23 (stereo not given) | -17% | -4% | -3% | 0%&12% | 10% | -14% | 0%
NCCNCCNCCN | -11% | -1% | 3% | -2%&18% | 15% | 8% | 2%
CN1C[C@H](C(=O)NC2(C)OC3(O)[C@@H]4CCCN4C(=O)[C@H](Cc4ccccc4)N3C2=O)CC2c3cccc4[nH]cc(c34)C[C@H]21 (stereo not given in full) | -28% | -5% | nt | nt | -1% | 10% | -3%
COc1cc2c(c(OC)c1OC)-c1ccc(OC)c(=O)cc1C(NC(C)=O)CC2 (stereo not given) | i | -16% | -55% | 21% | -7% | 23% | -8%
CN(C)CC/C=C1\c2ccccc2COc2ccccc21 | -21% | -10% | 10µM* | -1%&-1% | 7% | -20% | -3%&-15%
COc1ccc2c(c1OC)C(=O)OC2C1c2c(cc3c(c2OC)OCO3)CCN1C (stereo not given) | 11%&-25%&-28% | -15%&-24%&-16% | ? | 9%&20%&9% | 8%&26%&23% | ? | 7%&-8%&5%
c1ccc2c(c1)CCC[C@@H]2C1=NCCN1 | nt | nt | nt | -1% | nt | nt | nt

By substructure: those above containing four or more nitrogen atoms.
canonical_smiles | PTHR1 ag | GLP1R cytotox | GLP-1R inv ag | GLP1R ag | TDP43 rescue | KB-V1 cytotox | aSyn rescue
C/C(=C(/CCO)SSC[C@@H]1CCCO1)N(C=O)Cc1cnc(C)nc1N | nt | nt | nt | -2% | nt | nt | nt
NCCNCCNCCN | -11% | -1% | 3% | -2%&18% | 15% | 8% | 2%
CN1C[C@H](C(=O)NC2(C)OC3(O)[C@@H]4CCCN4C(=O)[C@H](Cc4ccccc4)N3C2=O)CC2c3cccc4[nH]cc(c34)C[C@H]21 (stereo not given in full) | -28% | -5% | nt | nt | -1% | 10% | -3%

Continued.
canonical_smiles | PTHR1 ag | GLP1R cytotox | GLP-1R inv ag | GLP1R ag | TDP43 rescue | KB-V1 cytotox | aSyn rescue
CC(C)(C)C(=O)OCOC(=O)[C@@H]1N2C(=O)[C@@H](N=CN3CCCCCC3)[C@H]2SC1(C)C | -20% | 7% | -12% | 0% | -9% | 12% | -1%
C[C@]12CCC(=O)C=C1CCC1C2C(=O)C[C@]2(C)C1CC[C@]2(O)C(=O)CO (stereo not given in full) | nt | nt | nt | -3% | nt | nt | nt
Nc1ncnc2c1ncn2[C@@H]1O[C@H](CO)[C@@H](O)[C@H]1O | -19% | 4% | 5% | 17%&12% | 0% | -5% | -10%&2%
CC[N+](CC)(CC)CCOc1cccc(OCC[N+](CC)(CC)CC)c1OCC[N+](CC)(CC)CC | i | -3% | -6% | 8%&1% | 0% | -2% | 9%&-8%
OC[C@H]1O[C@@H](O[C@@H]2[C@@H](CO)O[C@@](O)(CO)[C@H]2O)[C@H](O)[C@@H](O)[C@H]1O | -25% | -9% | 0% | 17% | 0% | 20% | 1%
CC1(C)S[C@@H]2[C@H](NC(=O)C(NC(=O)N3CCNC3=O)c3ccccc3)C(=O)N2[C@H]1C(=O)O (stereo not given in full) | i | 11% | 8% | -5% | 7% | 13% | -9%
N[C@@H](Cc1ccc(O)c(O)c1)C(=O)O | -29% | -2% | -6% | 0%&27% | -10% | 25% | -11%&3%
O=C1CCC(C(=O)O)N1 (stereo not given) | -4% | 0% | -2% | -5% | 0% | -2% | -6%
Nc1ccc(S(=O)(=O)c2ccc(N)cc2)cc1 | -15% | 4% | 3% | -5%&2% | 23% | 10% | 1%
CC[N+](CC)(CC)CCC(O)(c1ccccc1)C1CCCCC1 (stereo not given) | 6% | -3% | -3% | 5% | 6% | 21% | 3%
COC(=O)[C@H]1[C@H]2C[C@H]3c4[nH]c5ccccc5c4CCN3C[C@@H]2CC[C@@H]1O | 21%&-18% | 5%&5% | -2%&8% | -5%&17% | 4%&23% | 7%&-2% | -5%&4%
CCCn1c(=O)[nH]c(=O)c2[nH]cnc21 | -23% | 6% | 2% | 0%&4% | ? | 2% | 1%&9%
CCCC(=O)Nc1ccc(OC[C@@H](O)CNC(C)C)c(C(C)=O)c1 | nt | nt | nt | 12%[19.8 µM] | nt | nt | nt
COc1cc2c(cc1OC)[C@@H]1Cc3ccc(OC)c(OC)c3CN1CC2 | -5% | -9% | -8% | -1% | -6% | -12% | -5%
CCC1NC(=O)c2cc(S(N)(=O)=O)c(Cl)cc2N1 (stereo not given) | 7% | 0% | 23% | -4% | -2% | 8% | 3%
CCc1c(C)[nH]c2c1C(=O)[C@H](CN1CCOCC1)CC2 | nt | nt | nt | -2%[19.8 µM] | nt | nt | nt
O=CC(O)C1OC(=O)C(O)C1O (stereo not given) | i | 0% | 7% | 1% | 8% | 17% | 18%
NCCc1ccn[nH]1 | 21% | 1% | 2% | 1% | -9% | -1% | -1%
CN1CCN(CC/C=C2/c3ccccc3Sc3ccc(S(=O)(=O)N(C)C)cc32)CC1 | -12% | ? | ? | ? | ? | ? | -2%
C#C[C@]1(O)CC[C@H]2[C@@H]3CCC4=CC(=O)CC[C@@H]4[C@H]3CC[C@@]21C | -10% | 3% | 7% | 15% | 0% | 2.3µM* | -4%
NCCC(O)(P(=O)(O)O)P(=O)(O)O | nt | nt | nt | -3% | nt | nt | nt
c1ccc(-c2ncc(CN3CCN(c4ccccn4)CC3)[nH]2)cc1 | i | 6% | 16% | -6% | 14% | -21% | -1%
COc1cccc(OC)c1C(=O)N[C@@H]1C(=O)N2[C@@H]1SC(C)(C)[C@@H]2C(=O)O | -20% | -13% | -16% | 1% | 9% | 30% | 1%
CC(/C=C1\SC(=S)N(CC(=O)O)C1=O)=C\c1ccccc1 | -11% | 3% | -1% | -6%&-4% | 17% | -1% | 11%
NCCCC(=O)O | -4% | -2% | 6% | 23%&-4% | ? | -1% | -5%&-3%
CCOC(=O)/C=C(C)/C=C/C=C(C)/C=C/c1c(C)cc(OC)c(C)c1C | nt | nt | nt | 3% | nt | nt | nt
CN1CCC[C@@H]1CCO[C@](C)(c1ccccc1)c1ccc(Cl)cc1 | -30% | ? | ? | 6%&-1% | 4% | ? | 5%
CC(C)(C)NC(=O)[C@H]1CC[C@H]2[C@@H]3CC[C@H]4NC(=O)C=C[C@]4(C)[C@H]3CC[C@]12C | i | 1% | -1% | 5% | 6% | -21% | 1%
COc1ccc2c(c1)c(CC(=O)O)c(C)n2C(=O)c1ccc(Cl)cc1 | -8% | -9% | -22% | 22%&-5% | 36% | 14% | -10%&-9%
CCN(CC)C(C)CN1c2ccccc2Sc2ccccc21 (stereo not given) | nt | nt | nt | nt | nt | nt | 13%
COc1cc(NC(C)CCCN)c2ncccc2c1 (stereo not given) | i | -17% | 1% | -3% | 12% | -19% | 1%
CCN(CC)CCCC(C)Nc1ccnc2cc(Cl)ccc12 (stereo not given) | nt | nt | nt | nt | nt | 0% | 0%&-5%
OCC(O)CO | nt | nt | nt | 0% | nt | nt | nt
NS(=O)(=O)c1cc2c(cc1C(F)(F)F)NCNS2(=O)=O | -25% | -4% | 2% | -4% | 0% | 5% | 5%
CN1C(C(=O)Nc2ccccn2)=C(O)c2sccc2S1(=O)=O | -28% | 4% | 5% | -1% | 24% | -1% | 0%
Nc1ccn([C@@H]2O[C@H](CO)[C@@H](O)[C@@H]2O)c(=O)n1 | -7% | -3% | ? | -2% | 0% | -8% | 3%
CN1C[C@H](C(=O)N[C@]2(C)O[C@@]3(O)[C@@H]4CCCN4C(=O)[C@H](Cc4ccccc4)N3C2=O)CC2c3cccc4[nH]cc(c34)C[C@H]21 (stereo not given in full) | -4%&-4% | -15%&0% | nt | nt | 7%&-2% | 14%&0% | -3%&10%
C[C@]12CC[C@@H]3c4ccc(O)cc4CC[C@H]3[C@@H]1CC[C@@H]2O | i | -16% | -26% | -3%&24% | ? | ? | 9%&0%
NC12CC3CC(CC(C3)C1)C2 | 2% | 2% | -10% | -3%&7% | -1% | 7% | 0%&-1%
O=C(O)CC(O)C(=O)O (stereo not given) | -66%[inhibitor] | -10% | 1% | -1%&-8% | -4% | 24% | 10%

Compounds above that contain a tert-butyl group, in the order listed:
canonical_smiles | PTHR1 ag | GLP1R cytotox | GLP-1R inv ag | GLP1R ag | TDP43 rescue | KB-V1 cytotox | aSyn rescue
CC(C)(C)C(=O)OCOC(=O)[C@@H]1N2C(=O)[C@@H](N=CN3CCCCCC3)[C@H]2SC1(C)C | -20% | 7% | -12% | 0% | -9% | 12% | -1%
CC(C)(C)NC(=O)[C@H]1CC[C@H]2[C@@H]3CC[C@H]4NC(=O)C=C[C@]4(C)[C@H]3CC[C@]12C | i | 1% | -1% | 5% | 6% | -21% | 1%

Later entries:
canonical_smiles | PTHR1 ag | GLP1R cytotox | GLP-1R inv ag | GLP1R ag | TDP43 rescue | KB-V1 cytotox | aSyn rescue
NC(=O)NO | -16% | -1% | 1% | -3%&-3% | 10% | 14% | 1%&-1%
C=CCOc1ccccc1OC[C@H](O)CNC(C)C | nt | nt | nt | 0%[19.8 µM] | nt | nt | nt
COc1cc2ncnc(Nc3ccc(F)c(Cl)c3)c2cc1OCCCN1CCOCC1 | nt | nt | nt | 6% | nt | nt | nt
CN1CCC(=C2c3ccccc3C=Cc3ccccc32)CC1 | -22% | 0% | 13% | 20%&-5% | 3% | ? | 1%&10%
